Screening data from PubChem.
LANA-nucl inh: inhibitors of KSHV LANA-nucleosome binding, primary screen, biochemical, fluorescence polarization, FITC-LANA1-23, chicken nucleosomes | FITC-LANA1-23 / chicken nucleosome fluorescence polarization; hits give low values | z-score (no concentration beside the values) | actives 0.3% (n = 51,000) | AID 720717, 2013;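 active means both repeat wells score below -2 in polarization z-score versus plate sample wells, excluding overly bright wells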;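 further: 100 nL library stock added to about 30 µL; numbers are from one replicate; some results filed as inactive read as strong as hits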
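Material: Purified chicken nucleosomes with FITC-labelled LANA N-terminal peptide (1-23) | Reagent: 50 nM FITC-LANA1-23 probe | Medium: TEN-BT buffer, pH 7.5 | Times: 10–45 min incubation at room temperature | Detection: Fluorescence polarization | Replication: Duplicates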
BasE inh: BasE siderophore enzyme inhibitors, primary screen, biochemical, Acinetobacter baumannii ATCC 17978, fluorescence polarization. purified BasE, fluorescence polarization binding displacement. inhibition, % (test concentration not listed). actives 0.1% (n = 84,000). AID 485350, 2010;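 active means both replicates above 25% with normal brightness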;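 further: 0% = negative plate control signal and 100% = positive plate control signal; stock transfer was 100 nL into about 30 µL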
Active calls of the source: *; . = not tested or not shown. A portion of the library; count on the stated rates, not on these rows.

SMILES	LANA-nucl inh	BasE inh
CC(C)CNC(=O)c1ccc2snnc2c1	2.25	-3.3
Cc1c(F)cccc1NC(=O)c1cc(=O)n(C)c(=O)n1C	-0.737	1.0
CCCNC(=O)N1CCn2cccc2C1C (stereo not given)	-1.04	5.3
CC(C)(CNS(=O)(=O)c1ccc2ccccc2c1)N1CCOCC1	.	-0.5
Nc1cc(N)nc(Sc2ncnc3ccccc23)n1	0.569	-3.9
NC(=O)Cn1c(=O)n(Cc2ccco2)c(=O)c2ccccc21	-1.42	0.2
Cc1cc(N(C(=O)c2cnccn2)C(C(=O)NCc2ccccc2)c2cccs2)ccc1-n1cnnn1 (stereo not given)	0.199	-0.1
COc1ccccc1C(=O)Nc1ccc(NC(=O)c2ccccc2)nc1	1.39	0.5
COc1cc(/C=C2\C(=N)N3N=C(C)SC3=NC2=O)cc(Cl)c1OCCOc1ccc(NC(C)=O)cc1	-0.694	0.2
COC(=O)Cn1c(=S)[nH]c2ccccc2c1=O	.	-0.5
CCN=c1scc(-c2ccc(F)cc2)n1/N=C(\C)CC(C)C	.	0.2
O=C(Cn1ccc2ccccc2c1=O)NCCC(=O)N1CCN(c2cccc(Cl)c2)CC1	-0.449	-0.2
CCOC(=O)C1C(=O)C=C(c2ccco2)CC1c1ccc(F)cc1 (stereo not given)	0.007	4.6
Cc1cc(COC(=O)c2ccc3ncsc3c2)no1	.	-0.4
CCN(CC)S(=O)(=O)c1ccc(/C=C/C(=O)N=c2sccn2C)cc1	.	0.6
Cc1ccc(C(=O)NC(C)C)cc1C	1.5	-0.1
COc1ccc(/C=C(\NC(=O)c2ccccc2)C(=O)N2CCN(C)CC2)cc1	0.492	-2.1
CCN(Cc1ccccc1)S(=O)(=O)c1ccc(-c2cc(C(F)(F)F)no2)s1	.	-1.4
O=C1NC(=O)c2cc(S(=O)(=O)N(CCO)CCO)cc3cccc1c23	0.15	3.8
CC(C)NC(=O)Cn1cnc2c1c(=O)n(C)c(=O)n2C	1.02	-0.9
COc1ccc(OC)c(-n2c(-c3cc(-c4ccco4)[nH]n3)n[nH]c2=S)c1	0.72	-0.4
Cc1ccc2nc(Cl)c(CC3CC(c4ccccc4)=NN3C(=O)CCCC(=O)O)cc2c1 (stereo not given)	.	1.2
FC(F)(F)c1cc(Oc2ccc(-n3cccc3)cc2)cc(C(F)(F)F)c1	.	2.1
CNC(=O)COC(=O)c1ccc2c(c1)NC(=O)C1CCCN21 (stereo not given)	.	-1.1
Cc1ccc(C(=O)NCC2CCCO2)cc1 (stereo not given)	2.12	-4.1
(next part)
SMILES	LANA-nucl inh	BasE inh
CCOC(=O)C1CCN(C(C)=C2C(=O)c3ccccc3C2=O)CC1	.	4.4
O=C(c1ccccc1F)N(Cc1ccccc1)C1C=CS(=O)(=O)C1 (stereo not given)	.	1.7
COc1cccc(N2CCN(C(=O)c3cnc(SC)nc3C)CC2)c1	0.73	-1.6
O=C(N/C(=C/c1ccccc1)C(=O)N1CCCCCC1)c1ccccc1	.	-4.8
CCN(CC)S(=O)(=O)c1ccc(-c2cc(C(=O)OC)sc2C(F)(F)F)cc1	.	-1.9
CCC(=O)Nc1ccc(C(=O)N/N=C/c2ccc(C#N)cc2)cc1	-0.379	-1.0
COc1cccc(-c2nc(SCC(=O)N3CCCC3)n3[nH]c(=O)cc3n2)c1	-0.0555	1.0
CN(C)c1ccc(C(=NC(=O)C2CCC2)c2ccc(N(C)C)cc2)cc1	.	-0.1
Cc1nc2ccccc2n1C1CCN(C(=O)NC2CCCCC2)CC1	0.036	2.7
COc1ccccc1N1CCN(C(=O)c2nc(-n3nc(C)cc3C)ccc2Cl)CC1	.	-0.2
O=C(N/N=C/c1ccco1)C1CN(S(=O)(=O)c2ccccc2)CCN1S(=O)(=O)c1ccccc1 (stereo not given)	-0.325	0.5
COc1ccc(N2CCN(CC(O)c3ccccc3)CC2)cc1 (stereo not given)	.	1.4
Oc1c(C(c2ccccc2)N2CCCC2)sc2nc(-c3ccco3)nn12 (stereo not given)	-1.7	-0.4
Cc1nc(SCC(=O)NCC2CCCO2)nc(C)c1C (stereo not given)	.	0.7
O=C(NC1CC1)c1cccc(NC(=O)C2Cc3ccccc3O2)c1 (stereo not given)	.	0.3
CCOC(=O)C1CCN(Cn2nc3cc(C)c4ccccc4n3c2=S)CC1	.	2.1
CN1C(=O)N(c2nnc(C(C)(C)C)s2)C(=O)C1c1ccccc1 (stereo not given)	.	3.5
Cc1ccc2c(c1)nc(NCCCO)n2C	-0.999	-1.6
CNC(=O)COc1ccc(S(=O)(=O)Nc2ccccc2)cc1	0.649	-3.4
N/C(=N\C(=O)Nc1ccccc1)N1CCN(Cc2ccccc2)CC1	-0.374	-0.8
Clc1ccc(OCCCc2nc(-c3cccnc3)n[nH]2)c(Cl)c1	.	46.3*
O=C1/C(=C/c2ccccc2)Oc2c1ccc(O)c2CN1CCCC1	2.15	0.9
CCOC(=O)N1CCN(c2nc(-c3cccnc3)nc3ccccc23)CC1	.	-0.7
COc1ccc(NC(=O)CN(C)C)cc1	-0.562	1.2
CC(C)(C)c1cs/c(=N/c2ccccn2)n1-c1ccc(Cl)cc1	.	4.3
(continued)
SMILES	LANA-nucl inh	BasE inh
CC1CCCN(c2ccc(N)cc2)C1 (stereo not given)	0.444	-2.3
O=C(CN1CCN(c2ccccc2Cl)CC1)N1CCc2ccccc21	.	-0.9
O=C(NCCN1CCOCC1)Nc1c[nH]c2ccccc12	0.737	-2.8
CCC(C)(C)NC(=O)c1ccc2c(c1)N(CC#N)C(=O)C(C)(C)O2	0.786	1.4
O=C1CCC(=O)N1c1ccccc1	-0.49	1.1
COCCNC(=S)N1CCC(Cc2ccccc2)CC1	-0.259	2.5
O=C(CCNS(=O)(=O)c1ccccc1)N1CCCC1	0.205	-0.1
O=C(CSC(=S)N1CCCCC1)N1c2ccccc2CCc2ccccc21	.	-1.2
CCCc1nn2cc(CC(=O)NN)nc2s1	1.87	-4.2
COc1ccc(C(=O)OCC(=O)N2c3ccccc3CC2C)cc1 (stereo not given)	.	-6.6
Cc1noc(C)c1CCC(=O)Nc1ccc(-c2cc3ccccc3o2)cc1	.	-3.8
Cc1cc(C)c2c(-n3cccc3)nn(Cc3ccc(C(=O)NC4CC4)cc3)c2n1	1.71	-0.9
COc1ccc(N2CCN(C(=O)c3ccc(=O)[nH]c3)CC2)cc1	.	0.8
CC1(C)CC(N2N=C(N)CC2=O)CCO1 (stereo not given)	-1.63	1.0
CCn1c(N)c(C(=O)COC(=O)CCc2nc3ccccc3c(=O)[nH]2)c(=O)[nH]c1=O	.	-4.3
O=C(NC12CC3CC(CC(C3)C1)C2)c1cccnc1Cl	-0.348	-0.5
O=C(C1CCN(S(=O)(=O)c2ccc3c(c2)OCCO3)CC1)N1CCN(c2nc3ccccc3s2)CC1	2.22	-3.4
Cc1cc(C)c2c(N)c(C#N)sc2n1	0.0995	1.3
CC(Oc1ccc(C#N)cc1)C(=O)Nc1cc(Cl)ccc1-n1cncn1 (stereo not given)	.	-0.1
Cc1ccc(/C=C/C2=NC(=C\c3ccc(C)o3)/C(=O)O2)cc1	1.4	-19.3
O=C(Nc1cccnc1)C1CC(c2ccccc2O)=NO1 (stereo not given)	0.036	2.0
O=c1[nH]c(-c2cccc(O)c2)nc2c1Cc1ccccc1O2	-1.76	0.3
Cc1ccc(C(=O)Sc2ncc(C(F)(F)F)cc2Cl)cc1	.	0.2
O=C(CCSCCc1ccccn1)Nc1cc(-c2cccc(Cl)c2)no1	0.85	-1.9
COc1ccc(NC(=S)NCCc2c[nH]c3ccccc23)c(OC)c1	.	0.1

7 entries from above, with two lines to a compound:
Values run as follows: LANA-nucl inh, BasE inh
> CC(C)NC(=O)Cn1cnc2c1c(=O)n(C)c(=O)n2C
 : 1.02, -0.9
> COc1ccc(OC)c(-n2c(-c3cc(-c4ccco4)[nH]n3)n[nH]c2=S)c1
 : 0.72, -0.4
> Cc1ccc2nc(Cl)c(CC3CC(c4ccccc4)=NN3C(=O)CCCC(=O)O)cc2c1 (stereo not given)
 : ., 1.2
> FC(F)(F)c1cc(Oc2ccc(-n3cccc3)cc2)cc(C(F)(F)F)c1
 : ., 2.1
> CNC(=O)COC(=O)c1ccc2c(c1)NC(=O)C1CCCN21 (stereo not given)
 : ., -1.1
> Cc1ccc(C(=O)NCC2CCCO2)cc1 (stereo not given)
 : 2.12, -4.1
> CCOC(=O)C1CCN(C(C)=C2C(=O)c3ccccc3C2=O)CC1
 : ., 4.4

Next part.
SMILES	LANA-nucl inh	BasE inh
N#CSCC(=O)n1c2ccccc2c2ccccc21	.	-1.0
CNC(=S)N1CCc2sccc2C1C (stereo not given)	.	1.9
C=CCN(Cc1nc(-c2ccccc2)no1)S(=O)(=O)c1ccccc1	2.73	-2.5
O=c1ccnc(SCc2cccc(Cl)c2)[nH]1	-0.342	3.7
Cc1cc(O)c(C(C)C)cc1CNC(=O)c1ccccc1O	-2.11	1.4
O=C(O)c1cc(-c2ccc(Cl)cc2)n(-c2ccc(Cl)cc2)n1	0.061	.
Cc1ccccc1S(=O)Cc1ccc(C(=O)N2CC(C)CC(C)C2)o1 (stereo not given)	0.087	-0.5
CN(C(=O)NCc1noc2ccccc12)c1ccccc1Cl	-0.509	1.6
N#Cc1c(OCC(F)(F)F)ccc(Br)c1OCC(F)(F)F	.	1.7
O=C(C[n+]1ccccc1)c1cc2ccccc2oc1=O	.	0.9
Cc1ccc(C)c(N/C=C(\C#N)c2nc3ccccc3o2)c1	-0.26	-1.2
O=C1CCS(=O)(=O)c2ccccc21	-0.108	0.9
O=C(Cc1nc2ccccc2[nH]1)N1CCCC1	-0.598	2.5
N#C/C(=C1/CCCN1)c1nc(-c2ccccc2)cs1	.	-0.6
CCCc1nc2ccccc2n1CC(=O)N1N=C(c2ccc(Cl)cc2)CC1c1ccco1 (stereo not given)	.	-4.8
CC(C)(CC(=O)O)CC(=O)N1CCN(C2c3ccccc3-c3ccccc32)CC1	.	0.5
COc1ccc(NC(=O)CS(=O)CC(=O)NC2CCCc3ccccc32)cc1 (stereo not given)	-0.367	4.4
CC1CCC(C(C)C)C(OC(=O)CSc2nnc(-c3ccco3)n2Cc2ccccc2)C1 (stereo not given)	.	0.8
COC1OC(CO)C(O)CC1O (stereo not given)	-0.144	-1.8
Oc1cccc(/C=N/n2cnnc2SCc2ccc(Cl)cc2)c1O	.	0.9
Nn1cnnc1SCC(=O)N(C1CCCCC1)C1CCCCC1	-0.371	0.8
CC(C)c1nc2ccccc2n1C(=O)/C=C/C(=O)O	-0.484	6.6
Cc1ccc(NC2OC(=O)c3ccccc32)cc1 (stereo not given)	0.302	1.9
CC(C)Sc1nnc(NC(=O)CCc2ccccc2)s1	-0.532	0.8
CCSc1nnc(C2CCCN(CC(=O)Nc3ccc(C)cc3Br)C2)n1C(C)C (stereo not given)	-0.138	0.7

A stretch from further up:
SMILES	LANA-nucl inh	BasE inh
CC(C)c1nc2ccccc2n1C(=O)/C=C/C(=O)O	-0.484	6.6
Cc1ccc(NC2OC(=O)c3ccccc32)cc1 (stereo not given)	0.302	1.9
CC(C)Sc1nnc(NC(=O)CCc2ccccc2)s1	-0.532	0.8
CCSc1nnc(C2CCCN(CC(=O)Nc3ccc(C)cc3Br)C2)n1C(C)C (stereo not given)	-0.138	0.7

Going on with the list.
SMILES	LANA-nucl inh	BasE inh
CC(C)(C)C(=O)C(Cc1nnc(-c2ccc(Cl)cc2)o1)C(=O)C(C)(C)C	.	-0.7
N#Cc1cc2nc3c(nc2cc1C#N)-c1cccc2cccc-3c12	-0.176	4.3
CN(C)CCC(=O)Nc1nc(-c2ccc(Cl)cc2)cs1	-0.222	.
O=C1CSCN1c1ccc(C(F)(F)F)cc1	0.669	.
COCCn1cnnc1SCC(=O)c1ccc2ccccc2c1	.	-1.9
CCOC(=O)Cn1c(O)c(N=NC(=O)c2ccc(/C=N/O)nc2)c2ccccc21	-0.0135	0.1
COc1ccc(CC(=O)O)cc1F	.	2.8
Cc1nn(-c2ccccc2)c(C)c1C(=O)Oc1ccccc1	.	0.4
Cc1nc2ccn(Cc3ccco3)c(=O)c2cc1C(=O)NCC1CCCO1 (stereo not given)	-1.52	0.7
COC(=O)c1ccccc1NC(=O)COC(=O)C1CCCCC1	.	0.1
COc1cccc(CN(C)C(=O)C2CC(=O)N(c3ccc(C)cc3)C2)c1OC (stereo not given)	.	1.3
CCC(=O)n1nc(NCc2ccc(OC)c(OC)c2)nc1NCc1ccc(OC)c(OC)c1	1.02	-0.1
Cc1cccc(-c2noc(CNC(=O)N3CCOCC3)n2)c1	0.512	-5.2
Brc1cc2c(cc1CSc1nnc(Cc3ccccc3)o1)OCCO2	.	0.2
CCNS(=O)(=O)c1ccc(NC(=O)C2CC(=O)N(c3ccc(C)cc3)C2)cc1 (stereo not given)	-0.285	-0.4
COc1cc(CNC(=O)Cn2nc(C)c3c(C)n(-c4ccccc4)nc3c2=O)cc(OC)c1OC	.	-3.9
N#CC(C(=O)COc1ccc(Cl)cc1)c1nc2ccccc2[nH]1 (stereo not given)	.	-1.4
CCOC(=O)C(C)n1nnc2sc(-c3ccccc3)cc2c1=O (stereo not given)	1.41	-5.3
O=C(Nc1ccccc1)n1ccc(-c2ccc(-n3ccnc3)cc2)n1	-0.985	.
